# FGF22 binding: binders of human FGF22 protein, primary screen, FGF22 synaptogenesis inhibitor project, biophysical, thermal shift, single point; recombinant FGF22 thermal shift, SYPRO orange fluorescence; percent of sucrose octasulfate shift, DMSO zero; calls only at 9.99 µM; hit rate 1.5% among 340,000; AID 651658, 2012;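 active means melting point raised past a set limit in the mean and every replicate; three in four hits are not shown here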
# Target sequence (Q9HCT0 whole entry, looked up): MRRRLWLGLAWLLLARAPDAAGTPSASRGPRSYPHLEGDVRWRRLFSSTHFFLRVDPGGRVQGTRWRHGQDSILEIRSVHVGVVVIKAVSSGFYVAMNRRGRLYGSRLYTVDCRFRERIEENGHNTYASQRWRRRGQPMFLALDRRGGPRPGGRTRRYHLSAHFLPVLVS
# MLL AF4-AF9 inh: inhibitors of AF4 peptide binding to AF9, primary screen, biochemical, AlphaScreen, biotin-AF4 peptide, FLAG-AF9, single point. hit rate 0.47% among 350,000. inhibition, % at 10 µM;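 active means every replicate reaching a set inhibition limit, whatever the replicate mean, cut at about 25% in these data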;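 further: 0% = plate neutral control median and 100% = total signal loss; the record names both 10 and 1 µM as test concentration; the first replicate is given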
# Target sequence (P42568 whole entry, looked up): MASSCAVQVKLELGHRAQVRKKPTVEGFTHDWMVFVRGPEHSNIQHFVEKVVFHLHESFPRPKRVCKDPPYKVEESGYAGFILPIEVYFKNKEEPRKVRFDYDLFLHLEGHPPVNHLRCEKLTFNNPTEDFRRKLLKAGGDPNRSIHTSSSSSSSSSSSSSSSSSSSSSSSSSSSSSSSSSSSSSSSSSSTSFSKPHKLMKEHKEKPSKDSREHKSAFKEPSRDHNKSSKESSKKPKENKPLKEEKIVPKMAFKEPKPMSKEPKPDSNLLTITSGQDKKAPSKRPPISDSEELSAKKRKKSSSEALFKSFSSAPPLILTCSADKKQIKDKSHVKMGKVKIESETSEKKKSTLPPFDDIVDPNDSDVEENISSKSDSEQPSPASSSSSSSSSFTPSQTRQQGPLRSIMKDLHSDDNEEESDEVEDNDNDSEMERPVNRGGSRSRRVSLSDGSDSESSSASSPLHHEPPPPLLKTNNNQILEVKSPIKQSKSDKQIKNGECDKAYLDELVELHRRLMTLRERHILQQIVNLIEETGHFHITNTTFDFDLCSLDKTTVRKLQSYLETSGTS
# * marks the source's active call; other numbers are inactive results; i = inactive; + = active, no number. The list is partial, so the mix of outcomes need not match the whole.
FGF22 binding	MLL AF4-AF9 inh	Compound
i	1.3	C[C@@H]1CN([C@H](C)CO)C(=O)c2cc(NC(=O)CCCN(C)C)ccc2O[C@@H](C)CCCCO[C@H]1CN(C)C(=O)NC1CCCCC1
i	-1.5	Cc1ccccc1S(=O)(=O)NCC[C@H]1CC[C@H](NC(=O)C2CCOCC2)[C@H](CO)O1
i	4.6	COc1cccc(CN2CC3(CCN(C)CC3)c3c([nH]c4cc(OC)ccc34)[C@H]2CO)c1
i	-3.3	C[C@@H]1CN([C@@H](C)CO)C(=O)c2cccc(NS(=O)(=O)c3cn(C)cn3)c2O[C@H]1CN(C)S(=O)(=O)c1cccs1
+	-2.1	C[C@H](CO)N1C[C@H](C)[C@@H](CN(C)C)Oc2ncc(-c3cccnc3)cc2C1=O
i	13.3	Cc1ccccc1-c1ccc2c(c1)O[C@@H](CN(C)Cc1ccncc1)[C@H](C)CN([C@@H](C)CO)S2(=O)=O
i	-2.6	CC(C)[C@@H](CO)NC(=O)[C@H]1[C@@H](c2ccccc2)N(c2ccccc2)O[C@@H]1C
i	-0.5	O=C(C1CCCC1)N1CCCCN2[C@H](CO)[C@@H](c3ccc(C#CC4CC4)cc3)[C@@H]2C1
i	-5.4	COc1ccc(C#Cc2ccc3c(c2)O[C@@H](CN(C)S(=O)(=O)c2ccccc2F)[C@H](C)CN([C@H](C)CO)S3(=O)=O)cc1
i	1.4	COc1ccccc1Cc1c(-c2ccc(Cl)cc2)nc2ccc(C)cn12
i	-0.6	O=C(C[C@H]1C[C@@H]2c3cc(NC(=O)c4ccc5c(c4)OCO5)ccc3O[C@@H]2[C@H](CO)O1)NC1CCCC1
i	-2.3	O=C(C1CCCC1)N1CCCCN2[C@H](C1)[C@@H](c1ccc(C#CC3(O)CCCC3)cc1)[C@@H]2CO
i	0.1	COCC#Cc1ccc2c(c1)O[C@@H](CN(C)C(=O)c1ccccc1)[C@@H](C)CN([C@H](C)CO)S2(=O)=O
i	-0.2	O=C(N[C@@H]1CC[C@@H](CCn2cc(-c3ccccn3)nn2)O[C@H]1CO)c1ccncc1
i	-1.4	C[C@@H]1CN([C@@H](C)CO)C(=O)c2cc(NC(=O)C3CCCCC3)ccc2O[C@@H](C)CCCCO[C@H]1CN(C)S(=O)(=O)c1cccs1
i	-0.1	Cc1cc(Br)cn2c(Cc3cccc(Cl)c3)c(C3CCCCC3)nc12
i	-10.9	C[C@@H]1CN([C@@H](C)CO)C(=O)c2cc(NC(=O)Cn3cnnn3)ccc2O[C@H]1CN(C)S(=O)(=O)c1ccc(Cl)cc1
i	0.8	O=C(NC1CCC1)[C@@H]1[C@@H](CO)[C@@H]2Cn3c(ccc(-c4ccccc4F)c3=O)[C@@H]2N1Cc1ccncc1
i	-1.1	CCCNC(=O)C[C@H]1C[C@H]2c3cc(NC(=O)Nc4ccc(OC)cc4)ccc3O[C@H]2[C@H](CO)O1
i	0.5	C[C@@H]1CCCCO[C@H](CN(C)C(=O)NC2CCCCC2)[C@H](C)CN([C@@H](C)CO)C(=O)c2cc(NC(=O)CCC(F)(F)F)ccc2O1
i	0.8	COc1cccc(NC(=O)N[C@@H]2C=C[C@@H](CC(=O)N3CCN(C)CC3)O[C@H]2CO)c1
i	-1.4	C[C@@H]1CN([C@H](C)CO)S(=O)(=O)c2ccc(-c3cccc(F)c3)cc2O[C@@H]1CN(C)S(=O)(=O)c1ccccc1
i	-1.2	C[C@@H]1CCCCO[C@@H](CN(C)C(=O)CCCN(C)C)[C@@H](C)CN([C@H](C)CO)C(=O)c2cc(NC(=O)C3CCCCC3)ccc2O1
i	7.7	C/C=C/c1ccc2c(c1)O[C@H](CN(C)Cc1ccc(F)cc1)[C@@H](C)CN([C@@H](C)CO)S2(=O)=O
i	0.9	CCC(=O)N1[C@H](CO)[C@@H]2c3ccccc3N(C(=O)Nc3ccc(Cl)cc3)C[C@@H]21
i	-0.4	C[C@@H]1CCCCO[C@@H](CN(C)C(=O)C2CCCCC2)[C@H](C)CN([C@@H](C)CO)C(=O)c2cc(NS(=O)(=O)c3cn(C)cn3)ccc2O1
i	-3.4	CNC[C@H]1Oc2c(NC(=O)c3cc(C)nn3C)cccc2C(=O)N([C@H](C)CO)C[C@H]1C
i	0.3	C[C@H](CO)N1C[C@H](C)[C@@H](CN(C)Cc2ccc(C(F)(F)F)cc2)Oc2ccc(NC(=O)Nc3cccc4ccccc34)cc2C1=O
i	-18.0	Cc1ccc(S(=O)(=O)Nc2cccc3c2O[C@@H](CN(C)Cc2ccc(Cl)c(Cl)c2)[C@H](C)CN([C@@H](C)CO)C3=O)cc1
i	0.9	C[C@H]1CN([C@@H](C)CO)C(=O)Cc2cc(NC(=O)Cc3cn(C)c4ccccc34)ccc2O[C@H]1CN(C)S(=O)(=O)c1cn(C)cn1
i	-4.6	C[C@H](CO)N1C[C@H](C)[C@H](CN(C)C)Oc2cc(-c3cncnc3)ccc2S1(=O)=O
i	-3.6	C[C@H]1CN([C@@H](C)CO)C(=O)c2cccc(N(C)C)c2O[C@H]1CN(C)Cc1ccncc1
i	-1.0	C[C@H](CO)N1C[C@H](C)[C@@H](CN(C)S(=O)(=O)c2cccs2)OCc2ccccc2-c2ccccc2C1=O
i	-2.0	C[C@H](CO)N1C[C@H](C)[C@@H](CN(C)Cc2ccccc2)Oc2ncc(C#Cc3cccnc3)cc2C1=O
i	0.2	COc1ccc(NC(=O)N(C)C[C@H]2OCCCC[C@@H](C)Oc3ccc(NS(=O)(=O)c4ccc(F)cc4)cc3C(=O)N([C@H](C)CO)C[C@@H]2C)cc1
i	-3.4	C[C@H](CO)N1C[C@H](C)[C@H](CN(C)C(=O)Nc2ccc(F)cc2)Oc2c(NS(=O)(=O)c3cn(C)cn3)cccc2C1=O
i	-13.2	CC(C)NC(=O)Nc1ccc2c(c1)C(=O)N([C@H](C)CO)C[C@@H](C)[C@@H](CN(C)Cc1ccc(C(=O)O)cc1)O2
i	-1.0	C[C@@H]1CN([C@H](C)CO)C(=O)c2cc(NS(=O)(=O)c3ccc(F)cc3)ccc2O[C@H]1CN(C)C(=O)Nc1ccc(C(F)(F)F)cc1
i	1.4	C[C@@H]1CN([C@@H](C)CO)C(=O)c2cc(NC(=O)C3CCCCC3)ccc2O[C@@H]1CN(C)Cc1ccc2c(c1)OCO2
i	1.5	O=C(Cc1cccnc1)N1[C@@H](CO)[C@@H]2c3ccccc3NC[C@@H]21
i	-1.2	O=C(C[C@H]1CC[C@H]2[C@@H](COC[C@@H](O)CN2Cc2ccccc2F)O1)N1CCc2ccccc2C1
i	0.8	CNC[C@@H]1Oc2ccc(NS(C)(=O)=O)cc2C(=O)N([C@H](C)CO)C[C@H]1C
i	-0.1	C[C@@H](O)C#Cc1ccc2c(c1)O[C@H](CN(C)Cc1ccccn1)[C@@H](C)CN([C@@H](C)CO)S2(=O)=O
i	-5.0	C[C@@H]1CN([C@H](C)CO)C(=O)c2cc(NS(=O)(=O)c3cn(C)cn3)ccc2O[C@@H](C)CCCCO[C@@H]1CN(C)CC1CCCCC1
i	0.8	C[C@H](CO)N1C[C@H](C)[C@@H](CN(C)C)Oc2ccc(NS(=O)(=O)c3cccs3)cc2C1=O
i	0.2	COC(=O)c1cc2c(c3c4cc(OC)ccc4n(S(=O)(=O)c4ccc(OC)cc4)c13)C(=O)N(Cc1ccccc1)C2
i	-1.5	CO[C@@H]1CN(C)C(=O)c2cc(NS(=O)(=O)c3ccc(C)cc3)ccc2OC[C@H](C)N(C)C[C@@H]1C
i	0.0	O=C(N[C@H]1CC[C@H](CCn2cc(-c3ccccc3)nn2)O[C@H]1CO)c1cnccn1
i	1.3	O=C(NCC[C@H]1CC[C@H](NS(=O)(=O)c2ccccc2)[C@@H](CO)O1)c1cc(Cl)cc(Cl)c1
i	-2.8	C[C@H](CO)N1C[C@H](C)[C@H](CN(C)S(=O)(=O)c2ccc(Cl)cc2)Oc2ccc(NC(=O)C3CC3)cc2C1=O

# Part of the list above, with bars between the fields:
smiles | FGF22 binding | MLL AF4-AF9 inh
O=C(C1CCCC1)N1CCCCN2[C@H](C1)[C@@H](c1ccc(C#CC3(O)CCCC3)cc1)[C@@H]2CO | i | -2.3
COCC#Cc1ccc2c(c1)O[C@@H](CN(C)C(=O)c1ccccc1)[C@@H](C)CN([C@H](C)CO)S2(=O)=O | i | 0.1
O=C(N[C@@H]1CC[C@@H](CCn2cc(-c3ccccn3)nn2)O[C@H]1CO)c1ccncc1 | i | -0.2
C[C@@H]1CN([C@@H](C)CO)C(=O)c2cc(NC(=O)C3CCCCC3)ccc2O[C@@H](C)CCCCO[C@H]1CN(C)S(=O)(=O)c1cccs1 | i | -1.4
Cc1cc(Br)cn2c(Cc3cccc(Cl)c3)c(C3CCCCC3)nc12 | i | -0.1
C[C@@H]1CN([C@@H](C)CO)C(=O)c2cc(NC(=O)Cn3cnnn3)ccc2O[C@H]1CN(C)S(=O)(=O)c1ccc(Cl)cc1 | i | -10.9
O=C(NC1CCC1)[C@@H]1[C@@H](CO)[C@@H]2Cn3c(ccc(-c4ccccc4F)c3=O)[C@@H]2N1Cc1ccncc1 | i | 0.8
CCCNC(=O)C[C@H]1C[C@H]2c3cc(NC(=O)Nc4ccc(OC)cc4)ccc3O[C@H]2[C@H](CO)O1 | i | -1.1
C[C@@H]1CCCCO[C@H](CN(C)C(=O)NC2CCCCC2)[C@H](C)CN([C@@H](C)CO)C(=O)c2cc(NC(=O)CCC(F)(F)F)ccc2O1 | i | 0.5
COc1cccc(NC(=O)N[C@@H]2C=C[C@@H](CC(=O)N3CCN(C)CC3)O[C@H]2CO)c1 | i | 0.8

# Next section.
FGF22 binding	MLL AF4-AF9 inh	Compound
i	1.0	C[C@H](CO)N1C[C@H](C)[C@H](CN(C)Cc2ccc(C(F)(F)F)cc2)Oc2c(NC(=O)c3cnccn3)cccc2C1=O
i	3.2	CNC(=O)C[C@@H]1CC[C@H]2[C@H](COc3ccc(NC(=O)Nc4cc(C)cc(C)c4)cc3C(=O)N2C)O1
i	-0.7	CO[C@@H]1CC[C@@H]2CCOc3ccc(C#N)cc3C(=O)N(C)CCCC(=O)N(C)C[C@H]1O2
i	-2.9	CO[C@@H]1CN(C)C(=O)c2cc(NS(C)(=O)=O)ccc2OC[C@H](C)N(C(=O)C2CCC2)C[C@@H]1C
i	-2.3	Cc1cccc(-c2ccc([C@H]3[C@H](CO)N4CCCCN(C(=O)c5cccnc5)C[C@@H]34)cc2)c1
i	-2.2	C[C@H]1CN([C@@H](C)CO)C(=O)c2cccc(NC(=O)Nc3ccc(C(F)(F)F)cc3)c2O[C@@H]1CN(C)S(=O)(=O)c1cn(C)cn1
i	1.5	COc1ccc2c3c([nH]c2c1)[C@H](CO)N(Cc1nccs1)CC31CN(C(=O)C2CCCC2)C1
i	-1.0	O=C(NCc1ccc(F)cc1)[C@H]1C[C@H]2C(=O)N[C@@H](Cc3ccccc3)C(=O)N2[C@H]1c1ccc(O)cc1
i	-1.2	COc1ccc(NC(=O)N(C)C[C@@H]2Oc3ccc(NC(=O)C4CC4)cc3C(=O)N([C@@H](C)CO)C[C@@H]2C)cc1
i	0.4	CCCC(=O)Nc1ccc2c(c1)C(=O)N(C)C[C@@H](OC)[C@H](C)CN(CCc1ccccc1)[C@H](C)CO2
i	-2.7	OC[C@H]1[C@@H](c2ccc(-c3ccccc3F)cc2)[C@H]2CN(Cc3ccncc3)CCCCN21
i	0.3	CC(=O)N1[C@@H]2c3ccc(-c4ccncc4)c(=O)n3C[C@@H]2[C@@H](CO)[C@@H]1C(=O)NC1Cc2ccccc2C1
i	-0.3	CO[C@H]1CN(C)C(=O)c2ccc(NC(=O)C3CC3)cc2OC[C@H](C)N(CC2CC2)C[C@H]1C
i	-1.1	CO[C@@H]1CN(C)C(=O)c2ccc(NS(=O)(=O)c3ccccc3)cc2OC[C@@H](C)N(Cc2cccnc2)C[C@@H]1C
i	1.3	CN(C)C(=O)[C@@H]1[C@@H](CO)[C@@H]2Cn3c(ccc(C4=CCCCC4)c3=O)[C@H]1N2Cc1ccncc1
i	-2.1	O=C(C[C@@H]1C=C[C@H](NC(=O)Nc2cc(F)ccc2F)[C@@H](CO)O1)NCc1ccc2c(c1)OCO2
i	3.0	C[C@@H]1CN([C@@H](C)CO)C(=O)c2cccc(NS(=O)(=O)c3cn(C)cn3)c2O[C@H]1CN(C)Cc1ccc(-c2ccccc2)cc1
i	1.6	CCC(=O)Nc1ccc2c(c1)C(=O)N(C)C[C@H](OC)[C@H](C)CN(C(=O)C1CCC1)[C@@H](C)CO2
i	5.8	C[C@@H]1CCCCO[C@H](CN(C)Cc2ccncc2)[C@H](C)CN([C@@H](C)CO)C(=O)c2cc(NC(=O)Nc3ccccc3)ccc2O1
i	0.1	O=C(NCCN1CCCCC1)[C@H]1[C@H](CO)[C@H]2Cn3c(cccc3=O)[C@@H]1N2C(=O)C1CC1
i	3.4	C[C@H]1CCCCO[C@@H](CN(C)Cc2ccc(C(F)(F)F)cc2)[C@@H](C)CN([C@@H](C)CO)C(=O)c2cc(NC(=O)CCC(F)(F)F)ccc2O1
i	2.1	C[C@H]1CN([C@@H](C)CO)C(=O)c2cc(NC(=O)Nc3ccc(F)cc3)ccc2O[C@H]1CN(C)Cc1ccc(Oc2ccccc2)cc1
i	-2.0	O=C(C[C@H]1C[C@H]2c3cc(NC(=O)CC4CC4)ccc3O[C@H]2[C@@H](CO)O1)NCc1ccncc1
i	-3.4	O=C(C[C@H]1C=C[C@H](NS(=O)(=O)c2ccc(F)cc2)[C@@H](CO)O1)N1CCc2ccccc2C1
i	3.2	COc1ccc(S(=O)(=O)Nc2cccc3c2O[C@H](CN(C)Cc2ccc(C(F)(F)F)cc2)[C@H](C)CN([C@@H](C)CO)C3=O)cc1
i	-1.9	COc1ccc(S(=O)(=O)Nc2cccc3c2O[C@@H](CN(C)C(=O)Nc2ccc(C(F)(F)F)cc2)[C@H](C)CN([C@H](C)CO)C3=O)cc1
i	-3.6	Cc1noc(C)c1NC(=O)Nc1ccc2c(c1)C(=O)N([C@@H](C)CO)C[C@H](C)[C@@H](CN(C)C)O2
